Screening results as filed in PubChem.
gsp agonist: agonists of gsp mutant (McCune-Albright syndrome); AID 624287; Potency, µM (series often up to 76.9 µM), inactives show at the top dose activation (cAMP increase), usual class: activators; gsp mutant cells, cAMP HTRF, 30 min; control for the full effect not named in the record; actives 0.13% (n = 340,000); active = well fitted activation curve with a large enough effect; inconclusive = small, poorly fitted or top-dose-only effect, or another doubt; inactive = no such curve, though single readings can be large or run the other way; cell line not stated here;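 also: phosphodiesterase inhibitor Ro 20-1724 added with compounds to block cAMP breakdown; potency is read from the fitted curve at half-maximal effect; nearly all actives have a fitted effect of over 60% in size; about a fifth of the inactives were tested at one dose only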
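Cells stably selected in G418 were plated at 2000/well, grown 16-24 hr, then given compounds in DMSO with the PDE inhibitor […] (300 uM solution added) for 30 min at 37C; cAMP was read by HTRF.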
TRPV1 potentiator: enhances activation of the human vanilloid receptor TRPV1; potentiation, % at 8.33 µM; actives 0.02% (n = 320,000); TRPV1-expressing cells, Fluo-8 calcium influx, capsaicin EC20 potentiation; host cell line not named in the record; control for the full effect not named in the record; active means potentiation above 80%; inconclusive means 30% to 80%; inactive means below 30%; also: 0% is about no effect
Target sequence (Q8NER1 whole entry, looked up): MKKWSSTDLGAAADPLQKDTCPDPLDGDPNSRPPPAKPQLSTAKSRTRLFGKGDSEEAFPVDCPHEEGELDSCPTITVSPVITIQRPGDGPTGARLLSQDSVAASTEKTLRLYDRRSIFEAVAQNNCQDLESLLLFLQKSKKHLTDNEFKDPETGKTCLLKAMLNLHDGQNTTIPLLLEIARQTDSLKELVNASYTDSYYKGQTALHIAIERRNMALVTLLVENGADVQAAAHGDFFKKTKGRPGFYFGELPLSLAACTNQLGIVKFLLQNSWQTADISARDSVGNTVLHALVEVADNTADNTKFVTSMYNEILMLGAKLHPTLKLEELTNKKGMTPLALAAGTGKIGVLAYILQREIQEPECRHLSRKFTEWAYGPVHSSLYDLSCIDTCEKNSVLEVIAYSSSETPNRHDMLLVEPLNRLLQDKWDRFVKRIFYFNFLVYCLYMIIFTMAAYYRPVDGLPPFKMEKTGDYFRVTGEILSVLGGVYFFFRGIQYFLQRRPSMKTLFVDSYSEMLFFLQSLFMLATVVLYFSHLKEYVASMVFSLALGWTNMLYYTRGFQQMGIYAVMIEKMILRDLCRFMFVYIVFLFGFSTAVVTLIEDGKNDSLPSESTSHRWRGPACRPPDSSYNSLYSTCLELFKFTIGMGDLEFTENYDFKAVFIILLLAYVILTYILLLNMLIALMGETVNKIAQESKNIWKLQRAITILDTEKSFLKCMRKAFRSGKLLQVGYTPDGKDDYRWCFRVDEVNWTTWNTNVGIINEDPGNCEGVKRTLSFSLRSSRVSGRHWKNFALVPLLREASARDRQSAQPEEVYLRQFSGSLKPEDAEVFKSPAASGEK
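Fluo-8 calcium influx in TRPV1-expressing cells, kinetic read (ex 480/em 520 nm). Compound added and read 3 min for agonist activity, followed by capsaicin at EC20 final and 2 min further read for enhancement.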
gsp antagonist: antagonists of gsp mutant (McCune-Albright syndrome). gsp-mutant cells, cAMP HTRF, 30 min; control for the full effect not named in the record. Potency, µM (titrated, usually from 76.9 µM), for inactives: at the highest dose activity change, negative = inhibition, hits mostly inhibitors. actives 0.4% (n = 340,000). AID 624288; active = falling curve of any shape with a large fitted effect; inconclusive = falling curve, mostly with a smaller effect; inactive = flat or rising curve; cell line not stated here;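 also: intracellular cAMP measured with PDE inhibitor Ro 20-1724 present during compound exposure; potency is read from the fitted curve at half-maximal effect; % is scaled to controls: 0 for no effect and ±100 for the full control effect; nearly all actives have a fitted effect of over 65% in size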
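HTRF cAMP read-out (cAMP-d2 plus anti-cAMP antibody-K in lysis buffer, 30 min RT). Before lysis, cells are exposed to compounds with […] for 30 min at 37C in DPBS containing Ca/Mg, BSA and Tween 20.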
ClpP mod: qHTS Assay for Activators of ClpP; purified B. subtilis ClpP, FRET peptide cleavage, 20 min; Potency, µM (top dose mostly 57.5 µM), for inactives: top-dose activity change, negative = active; actives 1.9% (n = 340,000); AID 651965, 2013; active = well fitted falling curve with a large enough effect; inconclusive = small, poorly fitted or top-dose-only effect; inactive = no such curve, though single readings can be large or run the other way; also: potency is read from the fitted curve at half-maximal effect; the source files actives as falling curves though it sought activators and does not explain the sign; nearly all actives have a fitted effect of over 65% in size; many hits overshoot -100%
Target sequence (P80244 whole entry, looked up): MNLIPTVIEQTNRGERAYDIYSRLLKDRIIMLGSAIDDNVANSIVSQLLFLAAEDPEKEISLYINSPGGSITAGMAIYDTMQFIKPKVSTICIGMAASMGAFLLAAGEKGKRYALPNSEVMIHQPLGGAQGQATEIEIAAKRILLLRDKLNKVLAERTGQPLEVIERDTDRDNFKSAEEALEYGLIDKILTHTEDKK
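Purified B. subtilis ClpP, 10 microg/mL final in Tris/HCl pH8 with KCl, BSA, glycerol and Tween-20, cleaved an Abz/nitrotyrosine-quenched decapeptide. Fluorescence (ex 320, em 430) was read at 0 and 20 min at room temperature. Delta was normalized to 5.8 microM ADEP and DMSO/no-enzyme controls.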
CtBP-E1A blk: CtBP/E1A binding inhibition; AID 651724; activity change, % (concentration not given with the values); actives 0.49% (n = 340,000); AlphaScreen GST-E1A/His-CtBP binding, 1536-well; active compounds read low; control for the full effect not named in the record; in the data active means activity change below about -65%; inconclusive means about -30% to -65%; inactive means above about -30%; also: % is scaled to controls: 0 for no effect and ±100 for the full control effect
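Homogeneous bead-based format: GST-tagged E1A captured on glutathione donor beads, His-tagged CtBP on nickel acceptor beads; compounds precede bead addition by 2 h at 37 °C.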
Sfp PPTase inh: blocks B. subtilis Sfp PPTase activity. Q9F4F7. Biochemical Sfp PPTase activity, qHTS. Potency, µM, for the others: max response, negative = inhibition, hits mostly inhibitors. actives 3.5% (n = 310,000); active = well fitted inhibition curve with a large enough effect; inconclusive = small, poorly fitted or top-dose-only effect, or another doubt; inactive = no such curve, though single readings can be large or run the other way;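 also: the enzyme is Sfp with the accession as filed and its product quenches rhodamine fluorescence; potency is read from the fitted curve at half-maximal effect; 0% = enzyme reaction without inhibitor and -100% = no enzyme wells; top concentration of the series not given in the record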
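After 15 min at room temperature with compound, 15 nM Sfp received 5 uM rhodamine-CoA plus 12.5 uM BHQ-2-ybbR (50 mM Hepes pH 7.6, 10 mM MgCl2). Rate came from the fluorescence difference over 30 min, ex 525/em 598 nm.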
Menin MLL FP FL: menin-MLL binding inhibition, fluorescein peptide | Fluorescence polarization, fluorescein-MLL peptide displacement from menin | FP activity change, % at 61.4 µM | 290,000 tested, under 10 active | AID 1766; inconclusive = falling polarisation curve, or a change in total fluorescence; inactive = total fluorescence flat and polarisation flat or rising; no compound was filed as active; the % refers to the polarisation; negative = inhibition;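 also: % of control where 0% means no effect; inhibitors lower the polarisation; unlabelled MLL peptide was the positive control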
Starred values were filed as active, the others as inactive; ? = inconclusive; nt = no result given; & = joins results of further samples; [ ] = remark or other dose.

cpd	Molecule	gsp agonist	TRPV1 potentiator	gsp antagonist	ClpP mod	CtBP-E1A blk	Sfp PPTase inh	Menin MLL FP FL
1	Cc1ccc(NC(=O)N(CCC#N)Cc2ccccc2)cc1	26.6%	-3.2	-2.6%	-2.5%	nt	0.2%	5.4
2	Cc1c(Cl)cccc1NC(=O)CNC(=O)c1ccco1	?	15.4	0.2%	-2.4%	nt	26.8%	3.0
3	Cc1[nH]c2ccccc2c1C(=O)CSc1nccc(=O)[nH]1	-10.7%	23.6	-9.6%	1.0%	-10.2	5.7%	3.1
4	COc1ccc(C(=O)Oc2cc3c4c(c2)C(C)=CC(C)(C)N4C(=O)C3=O)cc1OC	10.2%	-4.0	7.4%	3.4%	1.7	-16.6%	-1.3
5	C/C(CC(=O)Nc1ccc2c(c1)OCCO2)=N\NC(=O)c1ccccc1F	-3.8%[15.4 µM]	-0.6	-12.7%	1.1%	-0.2	13.1%	-0.7
6	COc1ccc(CC(=O)N/N=C(\C)CC(=O)Nc2cccc(F)c2)cc1	13.6%	8.5	4.3%	nt	0.5	8.0%	-0.2
7	Cc1sc2ncnc(OCC(=O)NC(C)C)c2c1C	14.7%	4.3	10.3%	-0.5%	-3.5	16.2%	3.1
8	Cc1ccc(-c2csc(N(CCO)CCCn3c(C(F)(F)F)nc4cc(C(F)(F)F)ccc43)n2)cc1	nt	?	-1.1%	-0.6%	4.0	-4.3%	13.7
9	CCCCCN(C(=O)CCC(=O)OCc1ccc(C(C)C)cc1)c1c(N)n(CCCC)c(=O)[nH]c1=O	-7.9%[15.4 µM]	-2.9	-4.0%	0.5%	2.2	nt	nt
10	O=C(NCC1CCCN(C(=O)NCc2ccccc2)C1)c1ccc2c(c1)OCO2 (stereo not drawn)	-24.4%	12.8	-7.0%	-5.4%	nt	7.4%	-1.3
11	CC(=O)c1c(COC(=O)c2ccncc2)nc2ccccc2[n+]1[O-]	1.4%	7.0	5.1%	4.2%	-2.5	11.3%	1.8
12	COc1cc(C2NC(=O)NC(C)=C2C(=O)OC2CCCC(C)C2)cc(Br)c1O (stereo not drawn)	16.2%	-3.5	-10.9%	2.0%	7.9	8.1%	5.2
13	CC(CCc1ccccc1)NC(=O)c1ccccc1 (stereo not drawn)	-32.9%[inhibitor]	-13.8	-1.3%	-5.8%	10.1	4.3%	0.5
14	CN(CC(=O)Nc1ccc(F)cc1)C(=O)COc1ccc(C(=O)c2ccccc2)cc1	-20.1%[15.4 µM]	-13.7	-8.1%	-0.6%	-13.3	6.8%	0.3
15	CC(C)OC(=O)CSc1nnc(CNc2ccc(Cl)cc2)n1C	?	16.9	0.7%	nt	2.3	18.7%	-7.0
16	CCc1cccc(NC(=O)CCc2c(C)nn(-c3ccc(N4CCCCC4)nn3)c2C)c1	-32.8%[inhibitor]	-4.1	-29.2%	-1.6%	-1.7	-0.3%	2.5
17	COc1ccccc1S(=O)(=O)N(C)C[C@H]1OCc2cn(nn2)CCCC(=O)N([C@@H](C)CO)C[C@@H]1C	-22.7%	nt	nt	1.2%	1.2	nt	nt
18	Cn1nc(-c2ccc(C(=O)O)cc2)c2ccccc2c1=O	-25.3%	5.5	10.3%	5.6%	0.0	13.9%	0.5
19	CCOc1cc(NC(=O)c2ccccc2[N+](=O)[O-])c(OCC)cc1NC(=O)CC(C)C	-0.1%	4.0	7.7%	0.2%	1.3	14.6%	0.2
20	Cc1ccc2cc(CCNC(=O)c3ccc(S(=O)(=O)N4CCOCC4)cc3)c(=O)[nH]c2c1C	12.3%[15.4 µM]	-5.1	-10.5%	-6.9%	-5.6	1.8%	-1.4
21	COc1ccc2cnn(-c3ccc(C)cc3)c(=O)c2c1OC	-7.4%	9.0	6.7%	-2.3%	0.0	-4.2%	2.5
22	Cc1cc(S(=O)(=O)N2CCCC(N(C)CCc3ccccn3)C2)c(C)cc1Cl (stereo not drawn)	16.4%	26.2	14.9%	-4.2%	nt	-10.5%	nt
23	Cc1ccccc1CN1CCCOCCS1(=O)=O	11.4%	-13.2	11.7%	-0.8%&-1.1%	4.1	1.4%	0.3
24	C/C(=N/NC(=O)c1cc2ccccc2cc1O)c1ccco1	34.1%	16.0	-14.5%	1.5%	1.2	-10.2%	nt
25	COc1ccc(-n2c(SC)nc(O)c(Cc3ccccc3)c2=O)cc1	0.7%	-1.9	-11.9%	-1.4%	-4.0	0.3%	7.3
26	Cc1cccc(N(Cc2ccccc2)C(=O)CN2C(=O)NC3(CCCCC3C)C2=O)c1 (stereo not drawn)	-6.0%	-2.8	-7.5%	-1.0%	-0.4	nt	nt
27	CCC(=O)/C=C1/Sc2ccccc2N1CC	-24.0%	6.2	0.7%	-3.0%	-1.1	28.2µM*	1.2
28	Cc1nn(C(C)C(=O)NCCCN2CCCCCC2)c(=O)c2cc3sccc3n12 (stereo not drawn)	-13.3%	-3.1	4.8%	-29.3%	-4.9	13.4%	nt
29	Cc1cc(C)nc(SCCn2c(N(C)Cc3ccccc3)nc3c2c(=O)n(C)c(=O)n3C)n1	-1.3%	-2.1	8.5%	1.4%	-1.0	8.7%	1.0
30	CC1(C)Cc2c(c(N3CCOCC3)nc3snc(N)c23)CO1	-8.9%	-4.2	-0.3%	-16.5%	4.9	-1.9%	0.3
31	COc1ccc(S(=O)(=O)Nc2ccc3c(c2)C(=O)N([C@H](C)CO)C[C@H](C)[C@@H](CN(C)Cc2ccncc2)OCCCC[C@@H](C)O3)cc1	-27.1%	nt	nt	-4.0%	0.0	nt	nt
32	Cc1cc(=O)[nH]c(N/N=C/c2ccco2)n1	-66.3%[inhibitor]	3.7	1.5%	-1.1%	0.0	?	6.9
33	Cc1ccc(CCC(=O)Nc2cc(Cl)ccc2Cl)o1	-41.5%[inhibitor]	-5.3	-0.1%	nt	-2.0	6.6%	-3.5
34	O=C(N/N=C/c1ccccc1Cl)c1ccncc1	?	-10.6	6.4%	0.6%	nt	5.4%	-2.5
35	O=C(Nc1cccnc1)c1ccc(Cl)c(S(=O)(=O)N2CCCCCC2)c1	2.1%	2.8	-22.3%	-0.7%	-2.1	0.4%	1.0
36	Cn1c(=O)c([N+](=O)[O-])c(-n2cnc3ccccc32)c2ccccc21	-16.8%	0.5	-27.3%	nt	1.6	?	-1.2
37	COc1ccc(CCn2c(=N)c(C(=O)NCCN3CCOCC3)cc3c(=O)n4ccccc4nc32)cc1OC	5.2%	20.9	11.0%	-1.3%	-22.7	10.0%	8.3
38	O=C(CCOc1ccccc1F)N1CCN(c2ccccc2O)CC1	-11.5%	-5.9	-3.1%	nt	2.0	5.9%	0.1
39	O=C(CNC(=O)N1CC(=O)Nc2ccccc21)Nc1ccccc1F	17.5%	-10.0	24.8%	0.0%	-6.3	6.9%	nt
40	Brc1ccc(COn2ccnc2)cc1	-11.3%	-2.9	-4.1%	-7.1%	nt	15.0%	0.0
41	CC(C)(C)c1csc(NC(=O)c2ccncc2)n1	0.0%[15.4 µM]	-4.1	-5.2%	nt	nt	19.0%	1.5
42	C/C(=N\OC(=O)C1CC1)C1CC1c1ccc(F)cc1 (stereo not drawn)	29.2%	?	-9.7%	nt	1.3	22.8%	0.3
43	Cc1ccc(Cn2c(CCNc3nc(-c4ccc(Cl)c([N+](=O)[O-])c4)cs3)nc3cc(Cl)c(Cl)cc32)cc1	-22.6%	nt	-0.5%	-0.2%	-12.4	nt	nt
44	O=C(O)CCCCCNC(=O)c1ccc(Br)cc1	-64.9%[inhibitor]	3.3	13.1%	0.6%	6.1	1.6%	1.0
45	COc1ccc(CNC(=O)CCc2c[nH]c3ccccc23)cc1	2.7%	-13.7	5.3%	nt	-0.1	-4.5%	-0.6
46	O=C(O)c1ccc(CNCc2c(Cl)cccc2Cl)cc1	-37.5%[inhibitor]	4.6	-0.1%	0.6%	2.2	2.4%	1.9
47	Cc1cc2c(cc1C)C(c1cccc([N+](=O)[O-])c1)CC(=O)N2 (stereo not drawn)	?	-12.0	-26.7%	-3.2%	13.8	-4.0%	2.9
48	Cc1nc2scc(C)n2c(=O)c1S(=O)(=O)Nc1ccc(N2CCOCC2)c(Cl)c1	?	0.2	-5.1%	0.1%&-6.9%	7.5	11.8%	5.4
49	Cc1ccc(S(=O)(=O)NCc2nc3ccccc3c(=O)n2N)cc1	-3.5%	-1.5	-3.0%	-0.5%	2.7	-13.1%	-0.1
50	Cc1cccc(C(=O)N2CCCC(N3CCN(c4cccc(Cl)c4)CC3)C2)n1 (stereo not drawn)	7.7%[15.4 µM]	-0.2	-9.0%	1.4%	4.5	10.5%	nt

The listing continues:
cpd	Molecule	gsp agonist	TRPV1 potentiator	gsp antagonist	ClpP mod	CtBP-E1A blk	Sfp PPTase inh	Menin MLL FP FL
51	COc1ccc(-c2nnc3n2CCCCC3)cc1OC	-22.8%	16.2	6.5%	nt	-15.8	8.0%	-0.7
52	Cc1ccc(SCC(=O)N(C)C2CCS(=O)(=O)C2)c(C)c1 (stereo not drawn)	-19.6%[15.4 µM]	nt	-2.5%	-2.5%	-17.8	nt	nt
53	COc1cccc2cc(C(=O)N3CCN(c4ccccn4)CC3)c(=O)oc12	?	6.3	10.7%	0.7%	-0.3	3.5%	0.5
54	Cc1nn2c(N3CCN(C(=O)c4ccco4)CC3)cc(C(C)(C)C)nc2c1-c1ccc(Cl)cc1	nt	-8.4	nt	nt	nt	10.5%	9.6
55	COc1ccc(N2CCN(S(=O)(=O)c3ccc(OC)c(C(=O)N4CCOCC4)c3)CC2)cc1	-12.8%[15.4 µM]	7.6	9.2%	nt	-11.5	-0.6%	3.3
56	Nc1nonc1C(=O)N/N=C/c1ccc(-c2cccc(C(=O)O)c2)o1	nt	-8.9	nt	nt	nt	56.2µM*	7.7
57	COc1ccc2nc(NC(=O)/C=C/c3ccc4c(c3)OCO4)sc2c1	nt	5.9	nt	nt	nt	-31.6%	2.5
58	Cc1ccc(C)c(S(=O)(=O)NCCOc2nc(NC(C)C)nc(NC(C)C)n2)c1	17.2%	3.1	-8.1%	0.2%	1.8	0.7%	1.2
